# Arbovirus anti: arbovirus infection inhibition; arbovirus infection cell-based antiviral screen; inhibition, % at 10 µM; 0.37% of 200,000 active; AID 1251;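 active means inhibition from about 30%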;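 further: bluetongue infection of BSR cells; cell survival read as ATP light after 72 h; 0% = infected wells without compound and 100% = uninfected wells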
# Mtb betalactam: beta-lactam sensitization of Mtb H37Rv; M. tuberculosis H37Rv growth with meropenem, percent inhibition; hits of this screen are not shown here; inhibition, % at 25 µM; 0.27% of 330,000 active;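 active means about 74% or more and at least 40 points above the plate without the antibiotic, then above 30% in a dose series; inconclusive means first-round hits that could not be retested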;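 further: growth measured after seven days incubation then overnight dye step; 0% = bacteria only wells and 100% = bacteria with antibiotic; twin plates without the antibiotic show which effects depend on it; some results filed as inactive read as strong as hits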
# Mtb H37Rv: M. tuberculosis H37Rv growth inhibitors, H37Rv strain (AID 1626). M. tuberculosis H37Rv growth inhibition; higher % means a stronger effect. one-dose inhibition, % at 10 µM; IC50 in µM for titrated hits. 0.95% of 220,000 active;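 active means confirmed in a dose series; inconclusive means inhibition above 80% but not taken into the dose series; inactive means below 80% or under 30% at every dose of the series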;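 further: bacteria incubated seven days before Alamar blue readout; 0% = bacteria only wells and 100% = bacteria with antibiotic wells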
# YopH PTP inh: YopH (Yersinia) phosphatase inhibition; fluorescence Ex485/Em525; inhibition, %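 (about 10 µM by stock and volumes)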; 0.16% of 140,000 active; AID 898;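 active means inhibition of 50% or more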;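 further: controls were vehicle for no effect and minimum signal wells for full effect; inactives centre near -20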
# RecA splice inh: Mtb RecA intein splicing inhibition | P9WHJ3 | cell-free RecA intein splicing, fluorescence | inhibition, %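 (about 9 µM by stock and volumes)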 | 0.75% of 290,000 active | AID 2221; in the data active means inhibition above about 30%; inconclusive means no clear call, values can overlap the other calls;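 further: 0% = vehicle wells and 100% = reference inhibitor control wells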
# Target sequence (P9WHJ3 whole entry, looked up, canonical isoform): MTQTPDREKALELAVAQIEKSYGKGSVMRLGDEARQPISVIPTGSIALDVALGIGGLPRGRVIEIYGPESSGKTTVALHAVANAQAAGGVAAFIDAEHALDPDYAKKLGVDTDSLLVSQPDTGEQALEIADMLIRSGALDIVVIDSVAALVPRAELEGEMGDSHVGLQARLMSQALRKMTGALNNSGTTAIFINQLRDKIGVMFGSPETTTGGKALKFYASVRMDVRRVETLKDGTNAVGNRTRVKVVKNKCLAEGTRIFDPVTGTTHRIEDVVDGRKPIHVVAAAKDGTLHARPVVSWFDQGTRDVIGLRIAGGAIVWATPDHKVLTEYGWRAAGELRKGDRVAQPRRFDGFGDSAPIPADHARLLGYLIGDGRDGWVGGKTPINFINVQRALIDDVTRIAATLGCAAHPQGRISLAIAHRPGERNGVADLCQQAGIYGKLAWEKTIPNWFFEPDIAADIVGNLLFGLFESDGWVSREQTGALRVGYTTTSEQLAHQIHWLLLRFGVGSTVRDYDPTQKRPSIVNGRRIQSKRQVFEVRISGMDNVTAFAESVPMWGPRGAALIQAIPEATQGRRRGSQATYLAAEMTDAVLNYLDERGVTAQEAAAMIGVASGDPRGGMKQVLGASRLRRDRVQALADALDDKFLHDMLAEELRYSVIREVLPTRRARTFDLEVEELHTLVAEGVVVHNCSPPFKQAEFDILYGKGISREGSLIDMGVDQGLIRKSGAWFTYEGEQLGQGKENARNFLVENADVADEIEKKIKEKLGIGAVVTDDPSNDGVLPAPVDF
# Arbovirus anti repeat: also measured in Arbovirus anti; calls as there; inhibition, %; measured here: 10K subset replicate screen; many hits read low in the repeat;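 first of two repeat runs on a subset; 0% = infected and 100% = uninfected wells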
# Numbers without * were called inactive; u = inconclusive; x = no result given.
SMILES,Arbovirus anti,Mtb betalactam,Mtb H37Rv,YopH PTP inh,RecA splice inh,others
COc1cccc(C(=O)Nc2cc(=O)n(C)c(=O)n2C)c1OC,-1,-5,1%,-49,1.5,Arbovirus anti repeat=2
CCOC(=O)c1ccccc1NC(=O)c1ccc(Cl)c(S(=O)(=O)N2CCOCC2)c1,x,-8,x,-24,x,
N=C(N)Cc1ccccc1Sc1ccccc1,10,-4,3%,-45,0.8,
COc1ccc(Cl)cc1NS(=O)(=O)c1cccc(C(=O)NCC2(N(C)C)CCCCC2)c1,x,-3,x,x,0.7,
CCN(CC)c1ccc(NC(=O)CN(C)Cc2cccs2)cc1,x,-2,x,x,-2.3,
COc1ccc(CN2C(=O)/C(=C/c3ccc(-c4ccc(Cl)c(C(=O)O)c4)o3)SC2=S)cc1,2,x,1%,x,x,
c1ccc(Cn2ncc3c(N4CCOCC4)ncnc32)cc1,-12,2,-6%,-16,-0.4,
Oc1ccc(/C=N/N2CCN(Cc3ccccc3)CC2)cc1,x,1,x,x,-4.6,
Cc1ccc(S(=O)(=O)Nc2ccc(NC(=O)c3cccnc3)cc2)cc1,0,-3,0%,x,0.9,
C/C=C/C(=O)OCC(=O)Nc1ccc(OC)c(OC)c1,5,0,0%,x,0.8,
CCc1ccc(NC(=O)CSc2nnnn2C)cc1,x,13,x,x,-1.3,
CN(/N=C/c1cccs1)c1cc(=O)n(C)c(=O)[nH]1,-37,-4,-8%,1,5.3,
CS(=O)(=O)c1ccc2nc(NC(=O)c3ccc(Cn4cc(Br)cn4)o3)sc2c1,x,-2,x,x,-1.6,
O=[N+]([O-])c1cccnc1Sc1n[nH]c(-c2ccc(Cl)cc2)n1,x,27,0%,x,-8.3,
O=C(COC(=O)/C=C/c1ccc(Cl)cc1Cl)Nc1cc(C(F)(F)F)ccc1N1CCOCC1,5,8,3%,-36,-0.1,
O=C(NCc1ccccn1)/C(=C/c1ccco1)NC(=O)c1ccccc1,1,-4,-2%,-10,-0.6,
COc1ccc(-n2c(CN3CCN(C)CC3)nc3ccc([N+](=O)[O-])cc3c2=O)c(OC)c1,x,0,x,x,-3.2,
CCOc1ccc(-n2c(=S)sc3c(=O)[nH]c(SCC(=O)NCc4ccco4)nc32)cc1,0,x,1%,-52,-2.0,
CN(C(=O)COC(=O)/C=C/c1ccc(C(F)(F)F)cc1)C1CCS(=O)(=O)C1 (stereo not given),x,5,x,x,0.4,
O=C(Nc1ccc(Cl)cc1)NC1CCS(=O)(=O)C1 (stereo not given),4,0,-1%,-33,-0.9,
COC(=O)c1ccc(OC)c(CSc2nnc(COc3ccc(OC)cc3)o2)c1,2,18,6%,-28,3.4,
COc1ccc(N2CCN(C(=O)c3ccc(Br)cc3)CC2)c([N+](=O)[O-])c1,-2,1,2%,x,2.1,
COc1ccccc1NC(=S)NC(NC(C)=O)C(Cl)(Cl)Cl (stereo not given),x,3,-7%,x,-3.7,
COc1ccc(NC(=O)CN(C)C(=O)CNC(=O)c2cccs2)cc1,x,-2,x,x,-2.7,
Cc1ccc(S(=O)(=O)NC(CC(C)C)C(=O)N2CC(C)OC(C)C2)cc1 (stereo not given),x,0,x,x,-1.1,

# Structural class: those above containing a Cl atom (seven)
SMILES,Arbovirus anti,Mtb betalactam,Mtb H37Rv,YopH PTP inh,RecA splice inh,others
CCOC(=O)c1ccccc1NC(=O)c1ccc(Cl)c(S(=O)(=O)N2CCOCC2)c1,x,-8,x,-24,x,
COc1ccc(Cl)cc1NS(=O)(=O)c1cccc(C(=O)NCC2(N(C)C)CCCCC2)c1,x,-3,x,x,0.7,
COc1ccc(CN2C(=O)/C(=C/c3ccc(-c4ccc(Cl)c(C(=O)O)c4)o3)SC2=S)cc1,2,x,1%,x,x,
O=[N+]([O-])c1cccnc1Sc1n[nH]c(-c2ccc(Cl)cc2)n1,x,27,0%,x,-8.3,
O=C(COC(=O)/C=C/c1ccc(Cl)cc1Cl)Nc1cc(C(F)(F)F)ccc1N1CCOCC1,5,8,3%,-36,-0.1,
O=C(Nc1ccc(Cl)cc1)NC1CCS(=O)(=O)C1 (stereo not given),4,0,-1%,-33,-0.9,
COc1ccccc1NC(=S)NC(NC(C)=O)C(Cl)(Cl)Cl (stereo not given),x,3,-7%,x,-3.7,

# (list continues)
SMILES,Arbovirus anti,Mtb betalactam,Mtb H37Rv,YopH PTP inh,RecA splice inh,others
O=C(OCC(=O)N1CCC(Cc2ccccc2)CC1)c1ccccc1NCCO,x,3,x,x,-1.9,
Cc1cc(C)c(OCCn2ccnc2)c(C)c1,x,1,x,x,29,
CN(Cc1cccc(Cl)c1Cl)CC(O)COc1ccccc1 (stereo not given),x,13,x,x,2.5,
c1ccc2c(CSCc3nc4ccccc4[nH]3)cccc2c1,-3,6,7%,19,8.1,
Cc1nc2ccccc2c2nc(NC(=O)Cc3ccccc3)nn12,-8,-14,-10%,5,-0.6,
CC(=O)c1cccc(NC(=O)C2CCCN2S(=O)(=O)c2cccc3cccnc23)c1 (stereo not given),1,-1,-4%,-13,x,Arbovirus anti repeat=-10
Cc1noc(C)c1COc1ccc(C(=O)OCC(=O)OC(C)(C)C)cc1,3,97,28%,x,-1.7,
CCN1CCN(C(c2ccccc2)c2nnnn2CCc2ccc(OC)c(OC)c2)CC1 (stereo not given),10,-8,1%,-32,-3.1,
O=C(Nc1ccc(C(=O)O)cc1)/C(=C\C=C\c1ccccc1)NC(=O)c1ccc(Br)cc1,7,2,3%,x,2.0,
COc1ccc(-c2nn(CCC(=O)O)cc2/C=C2\SC(N)=NC2=O)cc1,-13,2,2%,-3,1.4,
NC(=O)CSc1nnc2n(-c3ccccc3)c(=O)c3c4c(sc3n12)CCCCC4,-8,2,2%,-18,-2.0,
COc1ccc(C2C(C(=O)Nc3cccc(OC)c3)c3ccccc3C(=O)N2C)cc1 (stereo not given),-1,2,5%,x,x,
O=C1CC(N2CCN(Cc3ccc4c(c3)OCO4)CC2)C(=O)N1CCc1ccccc1 (stereo not given),2,1,-4%,-27,0.7,
O=C(CCc1ccccc1)NN1C(=O)C2C3C=CC(C3)C2C1=O (stereo not given),4,13,5%,x,-4.4,
CCN(C(=O)C(C)N1C(=O)/C(=C/c2cccs2)SC1=S)C1CCS(=O)(=O)C1 (stereo not given),x,u,x,x,18,
CCCCN(C)C(=O)c1nc2ccccn2c1CNCCCn1nnc2ccccc21,10,-1,2%,x,1.0,
COC(=O)C1=C(C)N(Cc2ccco2)C(=O)/C1=C\c1ccc([N+](=O)[O-])cc1,-8,60,55%,x,9.2,
O=C(O)/C(=C\c1cccs1)c1ccccc1,-3,0,-3%,x,-1.7,
Cc1ccc(C(=O)Nc2ccc(NC(=O)c3ccco3)c(C)c2)cc1,x,15,x,x,-2.3,
O=C(CCC1CCCC1)Nc1ccon1,-1,-6,1%,1,-4.7,
CS(=O)(=O)N1CCC(C(=O)NNC(=O)Nc2ccc(F)c(Cl)c2)CC1,x,-3,x,x,0.0,
CSC1=NC(C)(C)C=C(/C=C/c2ccc(Cl)cc2Cl)N1,-33,70,13%,x,15,
CCOc1cc(CNCCCN2CCOCC2)ccc1OCC(=O)Nc1cccc2ccccc12,-25,-8,10%,-51,0.4,
Cc1ccc([C@@H]2[C@@H]3C(=O)N(c4ccccc4)C(=O)[C@@H]3[C@]3(Cc4ccccc4)C(=O)N(CC4CC4)CC(=O)N23)o1,x,-4,x,x,0.1,
Clc1cccc(Cl)c1Cn1cnc2c(N3CCCCCC3)ncnc21,-7,14,9%,-13,-0.1,

# The list goes on:
SMILES,Arbovirus anti,Mtb betalactam,Mtb H37Rv,YopH PTP inh,RecA splice inh,others
CCN(CC)S(=O)(=O)c1ccc2c(c1)nc(-c1ccccn1)n2C,x,2,x,x,1.9,
O=C(NCc1ccco1)c1ccccc1NS(=O)(=O)c1cccs1,6,-2,-6%,-30,2.5,
CCCCC(=O)NC(c1ccc(OC)c(OC)c1)c1c(O)ccc2ccccc12 (stereo not given),-10,x,-9%,-26,5.3,
Cc1nn(CC(=O)N2CCC3(CC2)OCCO3)c(=O)c2cc3ccccc3n12,x,1,x,x,-0.1,
CC(C)NC(=O)C1COc2ccccc2O1 (stereo not given),2,5,-2%,x,2.2,
COc1ccc(CCNC(=O)c2cc3c(=O)n4cccc(C)c4nc3s2)cc1OC,x,11,x,x,0.8,
NC(=O)CSc1nnc(Cc2cccs2)n1C1CCCCC1,6,-18,-1%,-14,-0.5,
Cc1nn(C(=O)CCC(=O)NCc2cccc(F)c2)c2ccccc12,x,-1,x,x,-1.3,
O=C1c2ccccc2C2NC(=O)C3(CCCCC3)N12 (stereo not given),-3,0,-4%,-39,12,
CSc1ccc(/C=N/N2CCN(Cc3ccccc3Cl)CC2)cc1,-13,8,-6%,x,3.3,
CC(=O)O[C@H]1C2OC(=O)C(C)=C2[C@@H]2OC(=O)[C@]3(CCC4OC41C)OC23 (stereo not given in full),-7,-11,-4%,-18,1.7,
Cc1ccsc1C(=O)OCC(=O)NCC1CCCO1 (stereo not given),1,-6,-2%,-40,1.0,
O=C(Nc1cccc(C(=O)Nc2ccc(Cl)cn2)c1)c1ccccc1,x,-4,x,x,-2.8,
Cc1ccc(S(=O)(=O)c2nc(-c3cccs3)oc2SCC(N)=O)cc1,3,-9,1%,-32,2.7,Arbovirus anti repeat=-3
OCCCc1nc2ccccc2n1CCCCOc1ccccc1,x,-4,x,x,1.5,
CC(=O)C1=C(C)NC(SCC(N)=O)=C(C#N)C1c1ccco1 (stereo not given),-2,-5,-5%,x,19,
Cc1cc(C)nc(/N=C(\N)Nc2ccc(OCc3ccccc3)cc2)n1,-35,89,15%,x,5.8,
Cc1cccc(Nc2nc(N)nc(CN3CCN(c4ccccc4F)CC3)n2)c1,x,89,u,-12,-0.8,
CCN1CCN(C(=O)c2ccc3c(=O)n(CCC4=CCCCC4)c(=O)[nH]c3c2)CC1,-25,-6,0%,-33,-1.3,
COc1ccc(N2CCN(CCCNC(=O)CCC(=O)N3CCOc4ccc(Cl)cc43)CC2)cc1,x,5,x,x,4.1,
Cc1ccc(C)c(NC(=O)CSc2nnc([C@@H]3CCCN3C(=O)OC(C)(C)C)o2)c1,4,-5,10%,-16,-1.6,
CC(=O)OC(C(=O)NCc1ccco1)c1ccncc1 (stereo not given),10,-4,1%,-48,-2.2,
COCCn1c(C)cc(C2=NNC(=NC3CC3)SC2)c1C,-7,1,5%,x,-2.6,
O=C(Nc1ccccc1-c1ccccc1)C(=O)Nc1ccccc1-c1ccccc1,x,1,2%,x,5.0,
N#C/C(=C\c1c(N(Cc2ccccc2)Cc2ccccc2)nc2ccccn2c1=O)C(N)=O,-43,-6,6%,-7,13,

# (continued)
SMILES,Arbovirus anti,Mtb betalactam,Mtb H37Rv,YopH PTP inh,RecA splice inh,others
CC(C)NC(=O)CCCc1cn(C)c2ccccc12,-4,3,-2%,-54,1.1,
CCn1cc(C(=O)NCC2CCCO2)c(=O)c2cc(F)c(N3CCN(C)CC3)cc21 (stereo not given),4,18,9%,-32,3.0,
O=C1NCCN/C1=C\C(=O)c1ccc(F)cc1,x,-5,-2%,x,1.2,
CCn1cc(CN2CCC(n3nccc3NC(=O)CCCc3ccccc3)CC2)cn1,x,-8,x,x,-0.7,
CCCOc1ccc(OCC(=O)c2[nH]c(C)c(C(C)=O)c2C)cc1,7,-5,-3%,-4,-3.1,
O=C(N/N=C/c1ccccc1)c1cc[n+]([O-])cc1,x,-11,x,x,-2.1,
Cn1c(CCN2CCCCC2)nc2cc([N+](=O)[O-])ccc21,10,9,2%,-30,-1.1,
FC(F)(F)c1cnc(-c2cnc3c(-c4ccc(Cl)cc4)cnn3c2)c(Cl)c1,-3,-4,x,-27,x,
O=C(CCCC(=O)c1ccc(O)cc1)c1ccc(O)cc1,x,1,x,x,-1.3,
CCC1CCCCN1C(=O)CSc1nc(N)cc(=O)[nH]1 (stereo not given),x,-9,x,x,-1.4,
CCN(CC)S(=O)(=O)c1ccc(C2=NOC3(C2)N(C)c2ccccc2C3(C)C)cc1 (stereo not given),4,-6,-5%,-24,2.2,
CCCCNCC(O)(c1ccc(Cl)cc1)c1ccc(Cl)cc1,-16,-5,9%,x,2.6,
COc1cc(C(=O)OCC(=O)NC2CCS(=O)(=O)C2)c([N+](=O)[O-])cc1OC (stereo not given),3,-4,0%,x,-0.8,
CC/C(=N\NC(=O)C1CCCC1)c1ccc(Br)cc1,x,-7,x,x,4.6,
CC1CCCC(C)N1C(=O)Cn1c(SCC(=O)NCc2ccc3c(c2)OCO3)nc2ccccc21 (stereo not given),-3,-8,5%,-40,0.9,
O=C1CC(c2ccc(F)cc2)CC(O)=C1C=NCCN1CCNCC1 (stereo not given),15,-1,-3%,5,-1.0,
C/C(=N\OCC(=O)OC(C)C(=O)Nc1ccc(C(N)=O)cc1)c1ccc2c(c1)OCO2 (stereo not given),x,-11,x,x,-1.4,
NC(=O)c1ccccc1OCc1nnc(-c2ccccc2Br)o1,x,1,x,x,1.4,
CCN(CC(=O)Nc1ccc(OC)cc1)C(=O)CCS(=O)(=O)c1ccc(C)cc1,x,-19,x,x,1.0,

# Screening data deposited in PubChem by several laboratories.

# Some of the compounds tested; the hit share may differ from the screen's.
